Screens: PubChem BioAssay, National Center for Advancing Translational Sciences (NCATS)
RE007 growth inh = qHTS Assay for Inhibitors of the HIV-1 protein Vpr. Potency, µM (doses to about 92.2 µM), for inactives: at the top dose activity change, negative = less growth. S. pombe RE007 Vpr strain, BacTiter-Glo ATP luminescence, 24 h; control for the full effect not named in the record. 360,000 compounds, 0.21% hits; active = well fitted falling curve with a large enough effect; inconclusive = small, poorly fitted or top-dose-only effect; inactive = no such curve, though single readings can be large or run the other way;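 also: nearly all actives have a fitted effect of over 50% in size; the assay follows cell death caused by Vpr and the record does not say whether a fall means rescue or toxicity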
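Fission yeast RE007 carrying one integrated HIV-1 vpr copy, seeded at OD 0.01 in PMG+AL medium with 23 nL pinned compound. Grown 24 h at 30 degrees; viability read by BacTiter-Glo luminescence after 5 min.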
StopGo reporter = High Throughput Screening for Foot and Mouth Disease Virus Antivirals. human cells with a luciferase reporter of 2A StopGo recoding; control for the full effect not named in the record. Potency, µM (highest dose often 57.9 µM), inactives show at the top dose signal change, negative = less light. 410,000 compounds, 1.2% hits. AID 1159524, 2015; active = well fitted falling curve with a large enough effect; inconclusive = small, poorly fitted or top-dose-only effect; inactive = no such curve, though single readings can be large or run the other way; tested in HEK293T cells; also: nearly all actives have a fitted effect of over 45% in size; luciferase light after 4 h
An asterisk follows results filed as active; u = inconclusive; [ ] = another dose, or the depositor's remark. % is scaled to controls: 0 for no effect and ±100 for the full control effect; potency is read from the fitted curve at half-maximal effect. The list is partial. The share of hits here may be higher or lower than overall.

Every second line gives: RE007 growth inh | StopGo reporter
- O=C(O)c1ccc(CNC(=O)C2CCN(S(=O)(=O)c3cccs3)CC2)cc1
    6% | -18%
- O=S1(=O)CC(N2CCN(CC3CC3)CC2)CN1Cc1ccccc1 (configuration not stated)
    0% | -16%
- CN1OC[C@@H]2CN(C(=O)c3cccnc3)[C@H](c3ccc(N4CCCCC4)cc3)C[C@@H]21
    26% | -4%
- O=S1(=O)CC(N2CCN(CCO)CC2)CN1Cc1cn(Cc2ccc(C(F)(F)F)cc2)nn1 (configuration not stated)
    1% | -21%
- O=C(NCc1ccco1)c1[nH]c(C(F)(F)F)nc1-c1ccccc1
    -13% | 0%
- Cc1cccc(NC(=O)CNC(=O)[C@H]2O[C@@H](n3cnc4c(N)ncnc43)[C@H](O)[C@@H]2O)c1C
    12% | -13%
- COCOc1cccc(CN2CCC2(C)C(=O)Nc2ccc(OC)c(OC)c2)c1 (configuration not stated)
    7% | 0%
- O=C(Cc1ccc(Cl)cc1)NCCc1c[nH]c2ccccc12
    -6% | -20%
- COc1cccc(-c2n[nH]nc2C2=CC(=O)CC(C)(C)C2)c1
    -11% | -1%
- COc1ccc(NC(=O)c2ccc(-c3c(C)noc3C)c3ccoc23)cn1
    -9% | -2%
- CC(C)NC(=O)C1CCN(Cc2cccc(OCc3ccccc3)c2)CC1
    -7% | 0%
- N=C(N)n1ncc2c1CCCC2=O
    -26% | -26%
- O=C(NCc1ccccn1)[C@@H]1CCCN1C(=O)[C@@H]1CCCN1C(=O)c1cccc2ccccc12
    -20% | 4%
- Cc1cccc(C)c1-n1nnnc1C(c1ccnc2ccccc12)N1CCN(C(=O)OC(C)(C)C)CC1 (configuration not stated)
    16% | -14%
- CCc1nc2ccc(C(=O)Nc3ccc(OC)c(OC)c3)cn2c1N(C)C(=O)c1cccc(OC)c1
    -13% | 2%
- COc1ccc(CN2C[C@@H](CO)O[C@@H](n3cnc4c(N5CCN(C)CC5)ncnc43)C2)cc1
    8% | -8%
- COc1ccccc1-n1c(SCC(=O)Nc2ccc(Cl)cc2)nc(O)c(Cc2ccccc2)c1=O
    -3% | 0%
- COc1ccc(C(C)=O)cc1CC1(C)C(=O)Nc2ccc(OC(F)(F)F)cc21 (configuration not stated)
    18% | -7%
- CC(=O)Nc1cncc(-c2cccc(C(=O)N(C)C)c2)n1
    6% | -24%
- CCc1ccc([C@H]2[C@@H]3C(=O)C[C@@H]4C(=O)N(CC)C(=O)[C@@H]4[C@@H]3CN2S(=O)(=O)c2ccc(C)cc2)cc1
    9% | -5%

Compounds shown so far that have a CF3 group, in the order listed:
Every second line gives: RE007 growth inh | StopGo reporter
- O=S1(=O)CC(N2CCN(CCO)CC2)CN1Cc1cn(Cc2ccc(C(F)(F)F)cc2)nn1 (configuration not stated)
    1% | -21%
- O=C(NCc1ccco1)c1[nH]c(C(F)(F)F)nc1-c1ccccc1
    -13% | 0%
- COc1ccc(C(C)=O)cc1CC1(C)C(=O)Nc2ccc(OC(F)(F)F)cc21 (configuration not stated)
    18% | -7%

(further entries)
Every second line gives: RE007 growth inh | StopGo reporter
- CN(C(=O)Nc1ccc(F)cc1)[C@H]1C[C@H]2c3[nH]c4ccccc4c3CCN2C(=O)[C@H]1CO
    10% | -1%
- CCn1c(O)c(N=NC(=O)CNC(=O)c2cccnc2)c2ccccc21
    -20% | -15%
- COC(=O)c1ccc(Cn2c(C)c(C(=O)NCc3ccc(C#N)cc3)sc2=O)o1
    1%[18.4 µM] | -29%
- CC(=O)C1=CCC(c2ccccc2F)N(S(=O)(=O)c2ccc(C)cc2)C1 (configuration not stated)
    0% | -23%
- COc1ccc(/C(O)=C2/C(=O)C(=O)N(CCCN3CCOCC3)C2c2ccc(Cl)cc2)cc1 (configuration not stated)
    0% | -25%
- c1ccc(CSc2nnc(-c3ccccc3)c(-c3ccccc3)n2)cc1
    15% | -25%
- CCOC(=O)c1cc(-c2ccccc2)nn1CC1CC(c2cccnc2)=NO1 (configuration not stated)
    6% | -18%
- CCCCNC(=O)C1(C)CCCCCN1Cc1cccc2c(OC)cc(C(=O)OCC)cc12 (configuration not stated)
    1%[18.4 µM] | u
- CC(C)CCN1C(=O)CSCC1(C)C(=O)NC(C)C (configuration not stated)
    1% | -29%
- COc1ccc(NC(=O)c2cc(-c3cc(F)ccc3OCC3CCCO3)n[nH]2)cc1OC (configuration not stated)
    -6%[18.4 µM] | -23%
- CC(C)(C)CCN1CCC(CN2CCNC(=O)C2=O)CC1
    -21% | -22%
- CC(C)NC(=O)C1(C)CN(S(C)(=O)=O)CC(=O)N1Cc1ccc2c(c1)OCO2 (configuration not stated)
    -1% | -5%
- Cc1ccccc1S(=O)(=O)N1CCN(c2ccc3c(c2)C2CC3CCN2C(=O)OCc2ccccc2)CC1 (configuration not stated)
    7% | 22%
- c1cc(-c2ccc(N3CCOCC3)cc2)n2ccnc2c1
    u | 29%
- Cc1ccc(NC(=O)c2sc3ncn(CC(=O)N4CCN(c5ccccn5)CC4)c(=O)c3c2C)cc1
    -7% | -19%
- CC(C)(C)NC(=O)C1c2ccccc2OCC(=O)N1CC(F)(F)F (configuration not stated)
    9% | -3%
- C[C@H](CO)N1C[C@H](C)[C@@H](CN(C)Cc2ccc(Cl)c(Cl)c2)OCCCC[C@H](C)Oc2ccc(NC(=O)CCC(F)(F)F)cc2C1=O
    -11% | -29%
- CCOc1ccc(OCCC(=O)Nc2ccc(N3CCOCC3)cc2N2CCOCC2)cc1
    -17% | -6%
- CCCCN(C=O)c1c(CC)nc2ccc(C(=O)N3CCCCC3)cn12
    13% | -12%
- COc1ccc(NC(=O)C2(C)Cc3c(-c4cccc(NC(C)=O)c4)ccnc3O2)cn1 (configuration not stated)
    4% | -16%
- Cc1ccc(S(=O)(=O)C[C@@H]2OC[C@H](Cc3ccccc3)N2S(=O)(=O)c2ccc(C)cc2)cc1
    -8% | 17%
- O=C(Nc1cc(C(F)(F)F)ccc1F)C1Cc2c(-c3ccccc3Oc3ccccc3)ccnc2O1 (configuration not stated)
    8% | u
- CN1CCN(C2CN(Cc3cn(Cc4ccc(C(F)(F)F)cc4)nn3)S(=O)(=O)C2)CC1 (configuration not stated)
    42% | -5%
- CC(=O)NC(c1ccc(F)c(F)c1)c1nc(-c2cccc(C(=O)O)c2)cs1 (configuration not stated)
    12% | 36%[activator]
- COC(=O)Cn1ccnc1[N+](=O)[O-]
    -1% | -2%
- O=C(OCc1ccccc1)N1CCC2CC1c1c(-c3ccc(C(F)(F)F)cc3)cccc12 (configuration not stated)
    -10% | -21%
- C#CCNC(=O)C[C@@H]1C[C@@]2(C(=O)OCC)CCCC=C2N(CCC2=CCCCC2)C1=O
    10% | 3%
- CCCCn1nnnc1C(c1cc2ccccc2o1)N(CCN(C)C)Cc1ccccc1 (configuration not stated)
    -25% | 1%
- CC1(C)CC(=O)C=C(c2cccnc2)C1
    1% | -5%
- C#CCOCCOCCOCCNc1nc(N2CCN(C(=O)Cn3cc(CC(C)O)nn3)CC2)nc(N2CCN(C(=O)[C@H](CCCCN)n3cc(CC(C)O)nn3)CC2)n1 (some centres not stated)
    -4% | -8%
- O=c1[nH][nH]c2c1[C@@H](c1ccc(F)cc1)O[C@H](C1CCCCC1)C2
    -8% | -20%
- CS(=O)(=O)c1ccc(C2=C(CNC(=O)c3ccc([N+](=O)[O-])cc3)[C@H]3CC[C@@H](C2)N3CCOc2ccccc2)cc1
    -2% | -6%
- Cc1ccc(CN2CC(N3CCC(Cc4ccccc4)CC3)CS2(=O)=O)cc1 (configuration not stated)
    -6% | -22%
- CCCCCCCCN1[C@@H](CC(=O)OC)c2cc(C(F)(F)F)ccc2S1(=O)=O
    3% | u
- CC(C)(C)NC(=O)C(c1cc2ccccc2o1)n1c(=O)c(-c2cc3ccccc3[nH]2)nc2ccccc21 (configuration not stated)
    3% | -5%
- Cc1ccccc1S(=O)(=O)NC(=O)C1(C)CCN1C(=O)Cc1cc(F)ccc1F (configuration not stated)
    3%[18.4 µM] | -9%
- COc1cc(F)ccc1-c1csc(C(C)(O)c2ccccc2)n1 (configuration not stated)
    -14% | -7%
- O=S1(=O)CC(N2CCCC2)CN1Cc1cn(Cc2cccc(Cl)c2)nn1 (configuration not stated)
    -18% | -17%
- CCCNC(=O)C1(C)CCCN(Cc2ccc3ccccc3c2)C1 (configuration not stated)
    -9% | -18%
- CSCCC(C(=O)Nc1c(C)cccc1C)n1c(COc2ccc(C)cc2)nc2ccccc21 (configuration not stated)
    5% | -21%

By substructure, those above with two or more sulfur atoms (two)
Every second line gives: RE007 growth inh | StopGo reporter
- O=C(O)c1ccc(CNC(=O)C2CCN(S(=O)(=O)c3cccs3)CC2)cc1
    6% | -18%
- Cc1ccc(S(=O)(=O)C[C@@H]2OC[C@H](Cc3ccccc3)N2S(=O)(=O)c2ccc(C)cc2)cc1
    -8% | 17%

Later entries.
Every second line gives: RE007 growth inh | StopGo reporter
- COC(=O)[C@H](CCSC)NC(=O)Cn1cc(C)c(=O)[nH]c1=O
    3% | -11%
- Cc1ccc(S(=O)(=O)N2c3ccccc3OC(C(=O)OC(C)(C)C)(C(=O)OC(C)(C)C)C2CC(=O)c2ccccc2)cc1 (configuration not stated)
    -6% | -7%
- CC1(C(=O)Nc2ccc3nc[nH]c3c2)CCN1C(=O)c1ccccc1CCc1ccccc1 (configuration not stated)
    -26% | -7%
- COc1ccc(S(=O)(=O)N2CCOCC2)cc1NC(=O)c1c(C)noc1C
    -6% | -12%
- CC(=O)Nc1ccc(-c2ccnc3c2CC(C)(C(=O)Nc2cccc(OC(F)(F)F)c2)O3)cc1 (configuration not stated)
    1%[18.4 µM] | u
- CC(C)Oc1ccc(C(=O)CCN2CCOCC2)cc1
    u | -15%
- CC1CCC(NC(=O)CN2CCN(S(=O)(=O)c3ccc(Br)s3)CC2)CC1 (configuration not stated)
    -7% | u
- CC(=O)OC(C(=O)Nc1nncs1)c1ccccc1 (configuration not stated)
    6%[18.4 µM] | -19%
- COC(=O)C1=C(c2ccc(S(C)(=O)=O)cc2)C[C@@H]2CC[C@H]1N2C(=O)NCc1cccc2ccccc12
    5% | -15%
- Fc1ccc(N2Cc3ccccc3-n3nncc3C2)cc1
    4% | -12%
- COc1cc(C(=O)Nc2cc(S(=O)(=O)N3CCOCC3)ccc2N2CCOCC2)cc(OC)c1C
    2% | -19%
- CC(C)(C)NC(=O)C(CCc1ccccc1)n1c(=O)c(-c2cc3ccccc3[nH]2)nc2ccccc21 (configuration not stated)
    5% | -17%
- C[C@H](CO)N1C[C@H](C)[C@@H](CN(C)S(=O)(=O)c2ccc(C#N)cc2)OCc2cnnn2CCCC1=O
    -19% | -17%
- N#Cc1ccc(CN(Nc2ccccc2)c2ccccc2)cc1
    -17% | u
- COc1ccc(CNC(=O)CC[C@H]2O[C@@H](n3cc(C)c(=O)[nH]c3=O)C[C@@H]2O)cc1
    6% | -10%
- C=C(C)c1cccc(C(C)(C)NC(=O)N2CCN(C(=O)OCC)CC2)c1
    -8% | -19%
- C[C@H]1CN([C@@H](C)CO)C(=O)CCCn2nncc2CO[C@H]1CN(C)C(=O)Nc1ccc2c(c1)OCO2
    -25% | 1%
- CN1CCN(C2CN(Cc3cn(Cc4ccccc4C(F)(F)F)nn3)S(=O)(=O)C2)CC1 (configuration not stated)
    10% | -4%
- CCN(CCCNc1cc2c(c(N)c1S(=O)(=O)O)C(=O)c1ccccc1C2=O)c1ccccc1
    u | -24%
- COc1cc(NC(=O)N2CCc3nc(Nc4cc(Cl)cc(Cl)c4)ncc3C2)cc(OC)c1OC
    -5%[18.4 µM] | -29%
- O=C(Nc1ccc2c(c1)OCO2)c1cc(C2CCCCN2C(=O)OCCF)on1 (configuration not stated)
    5% | 6%
- O=c1c(=O)n(CCO)n(CCO)c(=O)n1CCO
    -10% | 14%
- O=C(CNC(=O)N1CC(=O)Nc2ccccc21)NCCCc1ccccc1
    -11% | -20%
- O=C(C1=C[C@H](c2csc3ccccc23)C[C@H](OCc2ccc(CO)cc2)O1)N1CCCCCCC1
    7% | 20%
- Cc1ccccc1S(=O)(=O)NC(=O)C1(C)CCN1C(=O)CC(c1ccccc1)c1ccccc1 (configuration not stated)
    1%[18.4 µM] | -17%
- O=C(NCc1ccc(Cl)nc1)c1ccc2nc([C@@H]3O[C@H](CO)[C@H](O)[C@H](O)[C@H]3O)[nH]c2c1
    5% | 5%
- CCCCNC(=O)C(NC(=O)Cc1cc(OC)cc(OC)c1)C(=O)c1ccccc1 (configuration not stated)
    -3% | 3%
- COc1ccc(-c2cc(NC(C)=O)c3ncc(-c4ccc(F)cc4)n3c2)cc1OC
    5% | u
- CCCc1nc2ccc(C(=O)OC)cn2c1Cc1ccccc1C(F)(F)F
    -20% | -19%
- Nc1nc2ccc(Cl)cc2cc1C(=O)NCCc1c[nH]c2ccccc12
    u | u
- COCC(=O)Nc1ccc2c(c1)[C@@H]1C[C@H](CC(=O)OC)O[C@@H](CO)[C@@H]1O2
    10% | -12%
- COc1cccc(-c2cnc3c(NC=O)cc(-c4ccc(N5CCN(C)CC5)cc4)cn23)c1
    8% | 16%
